From PubChem
Vaccinia stage = blocks a specific stage of Vaccinia orthopoxvirus infection, primary screen, cell-based, single point | Vaccinia-infected cells, mCherry/Venus stage reporter fluorescence; hits give low values; some inactives read as strong as hits | AID 1053133, 2014 | activity change (mCherry), % (no concentration beside the values) | actives 0.01% (n = 89,000);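 active means mCherry past -33% and 40 or more points under the early reporter, replicates agreeing; inconclusive means past -33% without that gap or agreement; tested in A549 cells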;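 further: scaled between vehicle wells and reference inhibitor wells; 23 nL library stock went into each well; one replicate is shown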
Vaccinia stage Venus = recorded beside Vaccinia stage, whose call it bears; activity change (Venus), %; measured here: Venus reporter, other viral stage;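 negative = less Venus signal; first of two replicates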
Numbers without * were called inactive; ? = inconclusive; nt = not tested or not shown; & = joins results of further samples. Only part of the results is shown; rates above refer to the full screens.

SMILES | Vaccinia stage | Vaccinia stage Venus
CO[C@H]1CN(C)C(=O)c2cc(NS(=O)(=O)c3ccc(C)cc3)ccc2OC[C@@H](C)N(C)C[C@@H]1C | 1.1 | -2.6
C[C@H](CO)N1C[C@H](C)[C@@H](CN(C)C(=O)CCCN(C)C)OCCCC[C@H](C)Oc2ccc(NS(C)(=O)=O)cc2C1=O | 7.3 | 10.4
C[C@@H]1CN([C@@H](C)CO)S(=O)(=O)c2ccc(C#CCC3CCCC3)cc2O[C@H]1CN(C)C(=O)c1ccccn1 | ? | nt
COc1ccc(CN2CC3(CN(C(=O)Cc4ccncc4)C3)c3c([nH]c4cc(OC)ccc34)[C@@H]2CO)cc1 | 8.3 | 12.2
CN(C)C(=O)c1cccc(-c2ccc3c(c2)[C@@H]2[C@@H](CCN2C(=O)C2CC2)[C@H](CO)N3)c1 | 7.3 | 7.3
O=C(N[C@@H]1CC[C@@H](CCNC(=O)C2CCOCC2)O[C@H]1CO)c1ccccn1 | 8.4 | 6.6
O=C(C[C@@H]1C=C[C@@H](NC(=O)C2CC2)[C@H](CO)O1)NC1CCC1 | -2.7 | -6.3
C[C@H]1CN([C@@H](C)CO)S(=O)(=O)c2ccc(C#Cc3ccccc3)cc2O[C@@H]1CN(C)C(=O)Nc1ccc2c(c1)OCO2 | -6.4 | -9.8
C[C@H](O)C#Cc1ccc2c(c1)O[C@@H](CN(C)C(=O)CN(C)C)[C@H](C)CN([C@H](C)CO)S2(=O)=O | 4.0 | 6.5
O=C(C1CCOCC1)N1CC[C@@H]2[C@@H](CO)Nc3ccc(-c4cccc(F)c4)cc3[C@@H]21 | -14.8 | -8.3
CCCN1CCC2(CC1)CN(Cc1ccc3c(c1)OCO3)[C@H](CO)c1[nH]c3cc(OC)ccc3c12 | ? | nt
C[C@@H]1CN([C@@H](C)CO)C(=O)c2cc(NC(=O)Cc3cn(C)c4ccccc34)ccc2O[C@H]1CN(C)C(=O)Nc1ccc(C(F)(F)F)cc1 | -14.5 | 1.3
CCC(=O)N1[C@H](CO)[C@H](c2ccccc2)[C@@H]1CNC(=O)CN1CCOCC1 | 22.5 | 18.0
Cc1cccc(S(=O)(=O)N2C[C@H]3[C@@H](c4ccccc42)[C@@H](CO)N3C(=O)C2CC2)c1 | 1.4 | -1.3
O=C(C[C@H]1CC[C@@H]2[C@H](COC[C@H](O)CN2Cc2ccc(Oc3ccccc3)cc2)O1)N1CCCCC1 | ? | nt
C[C@H]1CN([C@@H](C)CO)C(=O)c2cccc(NC(=O)Nc3ccccc3)c2O[C@@H]1CN(C)C(=O)Nc1cccc2ccccc12 | 9.5 | 6.2
CCN1[C@@H]2c3ccc(-c4cccc(F)c4)c(=O)n3C[C@@H]2[C@@H](CO)[C@@H]1C(=O)N[C@@H](C)c1ccccc1 | -15.3 | -10.9
C[C@@H]1CN([C@H](C)CO)C(=O)c2cc(NC(=O)Nc3ccccc3)ccc2O[C@@H]1CN(C)Cc1ccccc1 | -20.7 | -12.4
C[C@@H]1CN([C@@H](C)CO)C(=O)c2cc(C#CC3CCCC3)cnc2O[C@H]1CN(C)C(=O)C1CC1 | -1.4 | 3.4
CC(C)NC(=O)NCC[C@H]1CC[C@@H](NS(=O)(=O)c2ccc(-c3ccccc3)cc2)[C@@H](CO)O1 | -6.6 | -0.4
O=C(C[C@H]1CC[C@H]2[C@@H](COC[C@@H](O)CN2S(=O)(=O)c2cccc(Cl)c2)O1)NC1CCC1 | 1.6 | 3.3
CO[C@@H]1CN(C)C(=O)c2ccc(NC(=O)c3cccc(F)c3)cc2OC[C@H](C)NC[C@H]1C | -4.0 | -1.9
C[C@H]1CN([C@@H](C)CO)C(=O)c2cc(NS(=O)(=O)c3ccc(F)cc3)ccc2O[C@@H]1CN(C)Cc1ccc(Oc2ccccc2)cc1 | -28.0 | -6.7
C[C@H]1CN([C@@H](C)CO)C(=O)CCCn2nncc2CO[C@H]1CN(C)S(=O)(=O)c1cccc(C#N)c1 | 22.2 | 19.7
C[C@H](CO)N1C[C@H](C)[C@@H](CN(C)C(=O)NC2CCCCC2)Oc2ccc(NC(=O)Nc3ccc(C(F)(F)F)cc3)cc2C1=O | -8.7 | -5.3

Pulled by structure from the list above, 3 records:
SMILES | Vaccinia stage | Vaccinia stage Venus
C[C@@H]1CN([C@H](C)CO)C(=O)c2cc(NC(=O)Nc3ccccc3)ccc2O[C@@H]1CN(C)Cc1ccccc1 | -20.7 | -12.4
CC(C)NC(=O)NCC[C@H]1CC[C@@H](NS(=O)(=O)c2ccc(-c3ccccc3)cc2)[C@@H](CO)O1 | -6.6 | -0.4
C[C@@H]1CN([C@@H](C)CO)C(=O)c2cc(NC(=O)Cc3cn(C)c4ccccc34)ccc2O[C@H]1CN(C)C(=O)Nc1ccc(C(F)(F)F)cc1 | -14.5 | 1.3

Going on with the list:
SMILES | Vaccinia stage | Vaccinia stage Venus
CN1C(=O)c2cc(NC(=O)c3ccc(F)c(F)c3)ccc2OC[C@H]2O[C@@H](CC(=O)N[C@H]3CCN(Cc4ccccc4)C3)CC[C@@H]21 | -34.3 | -14.9
C[C@@H](NC(=O)C[C@H]1C=C[C@H](NC(=O)C2CCOCC2)[C@@H](CO)O1)c1ccccc1 | 9.1 | 4.8
CN1c2ccc(-c3cccc(F)c3)cc2[C@@H]2[C@@H](CCN2C(=O)C2CCC2)[C@@H]1CO | ? | nt
C[C@@H]1CN([C@@H](C)CO)C(=O)Cc2cc(N(C)C)ccc2O[C@@H]1CN(C)C(=O)Nc1cccc2ccccc12 | -2.9 | -0.4
O=C(c1ccccc1F)N1CC(=O)N2[C@H](C1)[C@@H](c1ccc(C#Cc3ccccc3)cc1)[C@@H]2CO | ? | nt
O=C(c1ccc(F)cc1)N1CC(=O)N2[C@H](C1)[C@H](c1ccc(C#CC3CCCC3)cc1)[C@@H]2CO | -20.7 | -17.7
CO[C@H]1CN(C)C(=O)c2cc(NC(=O)C3CCC3)ccc2OC[C@H](C)N(C(=O)NC(C)C)C[C@@H]1C | 4.7 | 8.7
C[C@H](CO)N1C[C@H](C)[C@@H](CN(C)C(=O)Oc2ccccc2)OCc2cn(nn2)CCCC1=O | 8.1 | 3.0
Cc1ccc(S(=O)(=O)N(C)C[C@@H]2Oc3c(NC(=O)NC4CCCCC4)cccc3C(=O)N([C@@H](C)CO)C[C@H]2C)cc1 | -16.7 | -5.2
Cc1cccc(S(=O)(=O)N2CC[C@@H]3[C@H]2c2cc(-c4ccc(C#N)cc4)ccc2N(C)[C@H]3CO)c1 | -18.6 | -19.2
C[C@H]1CCCCO[C@@H](CN(C)Cc2ccccc2)[C@@H](C)CN([C@@H](C)CO)C(=O)c2cc(N(C)C)ccc2O1 | -13.3 | -10.6
Cc1noc(C)c1S(=O)(=O)Nc1ccc2c(c1)C(=O)N([C@@H](C)CO)C[C@@H](C)[C@H](CN(C)C(=O)Nc1cccc3ccccc13)OCCCC[C@H](C)O2 | 15.6 | 14.8
C[C@H](O)C#Cc1ccc2c(c1)O[C@@H](CN(C)C(=O)C1CC1)[C@@H](C)CN([C@@H](C)CO)S2(=O)=O | 24.3 | 10.8
O=C(CC1CC1)N[C@@H]1CC[C@@H](CCNS(=O)(=O)c2ccc(Cl)cc2)O[C@H]1CO | -4.2 | -0.8
C[C@H](CO)N1C[C@H](C)[C@H](CN(C)Cc2ccccn2)Oc2ncc(C#CC(C)(C)O)cc2C1=O | 17.6 | 23.6
CO[C@@H]1CN(C)C(=O)c2cc(NC(=O)C3CCC3)ccc2OC[C@H](C)NC[C@@H]1C | 8.2 | 9.9
C[C@@H]1CN([C@H](C)CO)C(=O)c2cc(NS(=O)(=O)c3cccs3)ccc2O[C@@H](C)CCCCO[C@@H]1CN(C)C(=O)CCCN(C)C | 13.0 | 6.2
COc1ccc(CN(C)C[C@H]2Oc3ccc(NC(=O)NC4CCCCC4)cc3CC(=O)N([C@@H](C)CO)C[C@H]2C)cc1 | -3.2 | -16.6
C[C@@H]1CN([C@H](C)CO)C(=O)CCCn2nncc2CO[C@@H]1CN(C)C(=O)Nc1ccc2c(c1)OCO2 | 19.4 | 8.1
O=C(Nc1ccc(F)cc1)N[C@H]1CC[C@@H](CC(=O)N2CCOCC2)O[C@H]1CO | 7.3 | 3.5
CN1[C@@H]2c3ccc(-c4cncnc4)c(=O)n3C[C@@H]2[C@@H](CO)[C@@H]1C(=O)NC1Cc2ccccc2C1 | -3.1 | 9.8
CO[C@@H]1CN(C)C(=O)c2ccc(NS(=O)(=O)c3ccc(Cl)cc3)cc2OC[C@@H](C)N(C(=O)NC(C)C)C[C@@H]1C | -4.3 | -3.7
Cc1ccc(S(=O)(=O)N[C@H]2CC[C@H](CCNS(=O)(=O)Cc3ccccc3)O[C@@H]2CO)cc1 | -14.3 | -3.4
O=C(Cc1cccnc1)N1CCCCN2[C@@H](CO)[C@H](c3ccc(/C=C/c4ccccc4)cc3)[C@@H]2C1 | ? | nt
COc1ccc2c3c(n(C)c2c1)[C@@H](CO)N(C(=O)Nc1ccc(F)cc1)CC31CN(C(=O)c2cccnc2)C1 | 13.2 | 4.8

In the list so far, two contain an NH in an aromatic ring.
SMILES | Vaccinia stage | Vaccinia stage Venus
COc1ccc(CN2CC3(CN(C(=O)Cc4ccncc4)C3)c3c([nH]c4cc(OC)ccc34)[C@@H]2CO)cc1 | 8.3 | 12.2
CCCN1CCC2(CC1)CN(Cc1ccc3c(c1)OCO3)[C@H](CO)c1[nH]c3cc(OC)ccc3c12 | ? | nt

(next part)
SMILES | Vaccinia stage | Vaccinia stage Venus
Cc1noc(C)c1NC(=O)Nc1ccc2c(c1)C(=O)N([C@H](C)CO)C[C@@H](C)[C@H](CN(C)C(=O)Nc1ccc(F)cc1)OCCCC[C@@H](C)O2 | 27.0 | 16.6
Cc1ccc(S(=O)(=O)Nc2ccc3c(c2)CC(=O)N([C@H](C)CO)C[C@@H](C)[C@@H](CN(C)CC2CC2)O3)cc1 | -4.9 | 2.2
Cc1noc(C)c1S(=O)(=O)N(C)C[C@H]1OCCCC[C@H](C)Oc2ccc(NC(=O)Cc3ccccc3)cc2C(=O)N([C@@H](C)CO)C[C@H]1C | -2.9 | -1.1
CN(C)CC#Cc1ccc([C@@H]2[C@@H](CO)N3C(=O)CN(C(=O)Cc4cccnc4)C[C@H]23)cc1 | 7.2 | 2.4
CN(C)C(=O)[C@@H]1[C@@H](CO)[C@@H]2Cn3c(cccc3=O)[C@H]1N2CC1CCCCC1 | 5.6 | 9.0
CC(C)CC#Cc1ccc([C@@H]2[C@H](CO)N3C(=O)CN(C(=O)Nc4ccc(F)cc4)C[C@@H]23)cc1 | -27.2 | -22.4
O=C(Cc1ccncc1)Nc1ccc2c(c1)[C@H]1C[C@@H](CC(=O)N3CCCCC3)O[C@@H](CO)[C@H]1O2 | 6.9 | 0.2
O=C(Cc1ccccc1)N1CCCCN2[C@H](CO)[C@H](c3ccc(C#Cc4ccccc4)cc3)[C@@H]2C1 | -35.0 | -40.6
CCS(=O)(=O)Nc1ccc2c(c1)C(=O)N(C)C[C@@H](OC)[C@@H](C)CN(C(=O)C1CC1)[C@H](C)CO2 | 4.1 | 5.9
CN1c2ccc(-c3ccccc3)cc2[C@H]2[C@H](CCN2C(=O)Cc2ccccn2)[C@H]1CO | -29.7 | -16.4
COc1ccccc1S(=O)(=O)Nc1ccc2c(c1)OC[C@H](C)NC[C@@H](C)[C@@H](OC)CN(C)C2=O | 6.1 | 5.5
O=C(C[C@H]1C=C[C@@H](NC(=O)c2ccc(F)cc2)[C@@H](CO)O1)NCCc1ccccc1 | 4.1 | 3.6
C[C@@H]1CN([C@@H](C)CO)C(=O)c2cccc(NC(=O)c3nc4ccccc4s3)c2O[C@@H]1CN(C)S(C)(=O)=O | 0.9 | 7.5
C[C@H](CO)N1C[C@H](C)[C@@H](CN(C)C(=O)CCC(F)(F)F)OCc2cnnn2CCCC1=O | 13.1&18.8 | 4.6&18.2
C[C@@H]1CN([C@@H](C)CO)C(=O)Cc2cc(NC(=O)Cn3cnnn3)ccc2O[C@H]1CN(C)S(=O)(=O)c1cccs1 | 10.8 | 8.1
CCC(=O)N(C)C[C@@H]1Oc2cc(-c3ccc(C#N)cc3)ccc2S(=O)(=O)N([C@H](C)CO)C[C@H]1C | 15.2 | 12.8
Cc1ccccc1S(=O)(=O)NCC[C@H]1CC[C@@H](NS(=O)(=O)c2ccccc2C)[C@H](CO)O1 | -8.4 | -5.3
O=C(CN1CCOCC1)N[C@@H]1CC[C@@H](CCNC(=O)C2CCCC2)O[C@@H]1CO | -5.0 | 1.6
C[C@H](CO)N1C[C@H](C)[C@@H](CN(C)Cc2ccncc2)Oc2ccc(NC(=O)Cn3cnnn3)cc2C1=O | 8.5 | 1.2
O=C(CN1CCOCC1)N1C[C@@H]2N[C@H](C1)C2c1ccc(/C=C/c2ccccc2)cc1 (stereo partly drawn) | 0.7&-11.5 | -8.8&-25.6
C/C=C/c1cnc2c(c1)C(=O)N([C@H](C)CO)C[C@H](C)[C@@H](CN(C)C(=O)CN1CCOCC1)O2 | 8.6 | 3.4
Fc1cccc(-c2ccc(C3[C@H]4CNC[C@@H]3N4CC3CCOCC3)cc2)c1 (stereo partly drawn) | -7.1 | -9.5
O=C(C[C@H]1CC[C@@H](NC(=O)c2cccnc2)[C@H](CO)O1)NCCN1CCCCC1 | 2.5 | -0.3
Cc1cccc(-c2ccc([C@H]3[C@@H](CO)N4C(=O)CN(C(=O)Cc5ccccn5)C[C@@H]34)cc2)c1 | 7.0 | 3.7
COc1ccc(CN(C)C[C@@H]2Oc3c(NC(=O)Nc4c(C)noc4C)cccc3C(=O)N([C@H](C)CO)C[C@H]2C)cc1 | 10.7 | 4.1
C[C@@H]1CN([C@H](C)CO)S(=O)(=O)c2ccc(C#CC(C)(C)O)cc2O[C@@H]1CN(C)CC1CC1 | 7.9 | 9.6
C[C@H]1CN([C@@H](C)CO)C(=O)c2cccc(NC(=O)c3nc4ccccc4s3)c2O[C@H]1CN(C)Cc1ccc(C(=O)O)cc1 | 10.5 | 6.6
COC(=O)C[C@H]1CC[C@H]2[C@@H](COc3ccc(NS(C)(=O)=O)cc3C(=O)N2C)O1 | 7.2 | 2.5
